High-throughput results from PubChem BioAssay.
TRPML1 ag: agonists of human TRPML1 channel. activation, % (concentration not given with the values). TRPML1-expressing cells, Ca2+ dye fluorescence, FDSS; host cell line not named in the record; reference of the full effect not given here. actives 0.12% (n = 410,000). AID 624414. Q9GZU1; in the data active = activation above about 50%; inconclusive = about 30% to 50%; inactive = below about 30%; further: 0% is about no effect; the text of the record puts the active cut at 80%
Target sequence (Q9GZU1 whole entry, looked up): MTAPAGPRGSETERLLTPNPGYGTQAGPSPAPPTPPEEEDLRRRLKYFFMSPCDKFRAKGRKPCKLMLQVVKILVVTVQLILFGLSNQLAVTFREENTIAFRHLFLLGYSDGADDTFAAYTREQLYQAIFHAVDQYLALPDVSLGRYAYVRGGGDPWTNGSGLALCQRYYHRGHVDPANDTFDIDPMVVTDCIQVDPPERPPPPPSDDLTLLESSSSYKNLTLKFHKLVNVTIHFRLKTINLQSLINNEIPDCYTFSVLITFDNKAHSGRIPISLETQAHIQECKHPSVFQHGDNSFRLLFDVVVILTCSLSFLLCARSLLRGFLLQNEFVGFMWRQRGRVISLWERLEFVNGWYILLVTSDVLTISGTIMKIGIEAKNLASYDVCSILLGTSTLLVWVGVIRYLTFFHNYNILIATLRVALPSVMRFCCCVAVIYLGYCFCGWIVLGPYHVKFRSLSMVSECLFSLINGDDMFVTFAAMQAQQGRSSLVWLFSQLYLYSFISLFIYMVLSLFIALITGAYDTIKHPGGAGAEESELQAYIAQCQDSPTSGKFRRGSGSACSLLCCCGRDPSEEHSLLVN
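Cells: TRPML1-DL, 1X Tet inducer, ~16 h at 37 degrees C/5% CO2. Dye: ABD Ca8 no-wash + quencher, 45-90 min RT. Read: 10 s baseline, compound add, 110 s agonist phase; 54-4 EC80 (4uM final), 110 s antagonist phase.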
PINK1 expr mod: changes PINK1 expression; PINK1 immunofluorescence, high-content cytometry, 24 h; Potency, µM (top dose mostly 76.6 µM), for the others: top-dose activation (PINK1 increase), usual class: activators; actives 0.2% (n = 410,000); AID 624263; active = well fitted activation curve with a large enough effect; inconclusive = small, poorly fitted or top-dose-only effect; inactive = flat fitted curve, though single readings scatter; cell line not stated here;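 further: potency means the concentration at half of the fitted maximal effect; % of control where 0% means no effect; nearly all actives have a fitted effect of over 65% in size; a mitochondrial uncoupler was the plate control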
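PINK1 protein level read as immunofluorescence by microplate cytometer in a fixed, stained stable cell line after 24 h exposure to five compound concentrations, with CCCP as control.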
TRPML1 inh: human mucolipin-1 channel inhibition. actives 0.02% (n = 390,000). AID 624415. activity change, negative = inhibition, % (concentration not given with the values). Q9GZU1. TRPML1-inducible cells, Ca2+ dye fluorescence, FDSS; hits give low values; inhibition of EC80 agonist-evoked calcium signal; in the data active means activity change below about -50%; inconclusive means about -30% to -50%; inactive means above about -30%;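 further: stimulus is agonist 54-4 at its EC80 concentration; on the % scale 0 is the no-effect control and ±100 the full control effect; compound concentration not given in the record; the text of the record puts the active cut at -80%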
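Calcium fluorescence in TRPML1-DL cells induced overnight with Tet: a 110 s read after compound pin addition, then a 110 s antagonist read after challenge with 54-4 at 4 uM final (EC80).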
D2 ag: agonists of human D2 dopamine receptor (beta-arrestin); P14416; DiscoveRx PathHunter D2 beta-arrestin, luminescence, 90 min; 100% = 57 uM dopamine signal; activation, % (concentration not given with the values); actives 0.084% (n = 360,000); in the data active = activation above about 40%; inconclusive = about 15% to 40%; inactive = below about 15%; further: compound concentration not given in the record; the text of the record calls up to 30% inactive
Target sequence (P14416 whole entry, looked up): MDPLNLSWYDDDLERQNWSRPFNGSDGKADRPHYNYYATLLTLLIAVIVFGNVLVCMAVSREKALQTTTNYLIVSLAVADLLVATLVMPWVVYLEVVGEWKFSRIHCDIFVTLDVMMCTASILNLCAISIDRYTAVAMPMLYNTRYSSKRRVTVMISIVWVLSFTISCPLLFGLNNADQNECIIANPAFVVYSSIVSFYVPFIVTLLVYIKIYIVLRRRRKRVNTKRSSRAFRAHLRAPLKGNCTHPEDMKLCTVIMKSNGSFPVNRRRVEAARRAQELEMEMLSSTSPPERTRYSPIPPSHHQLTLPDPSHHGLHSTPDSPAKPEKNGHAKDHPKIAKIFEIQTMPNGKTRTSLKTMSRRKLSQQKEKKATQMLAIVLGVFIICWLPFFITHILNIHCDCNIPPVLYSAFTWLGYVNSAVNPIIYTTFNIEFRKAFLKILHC
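DiscoveRx PathHunter D2 beta-arrestin cells (2,100/well) attached overnight, then compound-stimulated 90 min at 37 C in HBSS/10 mM HEPES/0.1% Tween-20 buffer; beta-galactosidase complementation read by luminescence after 1 h at ambient temperature. Dopamine 57 uM final (EC100) as control.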
Six1-Eya2 blk: inhibitors of human Six1/Eya2 interaction | Q15475+O00167 | AlphaScreen GST-Six1/His-Eya2 binding, biochemical; hits give low values; control for the full effect not named in the record | AID 651725 | actives 0.56% (n = 360,000) | activity change, % (concentration not given with the values); in the data active = activity change below about -65%; inconclusive = about -30% to -65%; inactive = above about -30%; further: on the % scale 0 is the no-effect control and ±100 the full control effect
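GST-Six1 + His-Eya2 (5X stock: 250/500 nM); Tris pH 8.0, 300 mM NaCl, 0.05% BSA, 0.02% Tween 20; GSH donor/Ni acceptor beads; 1 h 37 °C dark; AlphaScreen readout.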
CtBP-E1A blk: inhibitors of CtBP/E1A interaction; AlphaScreen GST-E1A/His-CtBP binding, 1536-well; hits give low values; control for the full effect not named in the record; activity change, % (no concentration beside the values); actives 0.49% (n = 340,000); in the data active means activity change below about -65%; inconclusive means about -30% to -65%; inactive means above about -30%; further: on the % scale 0 is the no-effect control and ±100 the full control effect; compound concentration not given in the record
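Steps: dispense buffer (Tris pH 8.0, NaCl 300 mM, TCEP 1 mM, BSA, Tween 20); add 5X protein mix (GST-E1A, His-CtBP, 125 nM each); pin 23 nL compound; 2 h at 37 °C, dark; add 5X beads (50 ug/mL); 1 h; read.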
An asterisk follows results filed as active; & = joins results of further samples; [ ] = another dose, or the depositor's remark.

What do the screens show for `O=C(COc1ccc(Br)cc1)Nc1cc(S(=O)(=O)N2CCCCC2)ccc1N1CCCCC1`?
TRPML1 ag: -0.3; PINK1 expr mod: -1.8%; TRPML1 inh: 21; D2 ag: -5.2; Six1-Eya2 blk: 1; CtBP-E1A blk: 8

Results for COc1cc(C(=O)N2CCN(S(=O)(=O)c3cc(C)ccc3C)CC2)ccc1OCC(=O)N1CCOCC1 ?
TRPML1 ag: -0.1; PINK1 expr mod: -0.1%; TRPML1 inh: 9; D2 ag: -1.8; Six1-Eya2 blk: 4; CtBP-E1A blk: -10

Results for CC(=O)c1nc(N2C(=O)C3CC=C(C)CC3C2=O)sc1C (centres undefined) ?
TRPML1 ag: 0.7; PINK1 expr mod: -3.1%[38.3 µM]; TRPML1 inh: 10; D2 ag: -2.0; Six1-Eya2 blk: -4; CtBP-E1A blk: 4

Results for O=C(CCCOc1ccccc1)Nc1nncs1 ?
TRPML1 ag: 1.9; PINK1 expr mod: -1.1%; TRPML1 inh: 37; D2 ag: -0.4; Six1-Eya2 blk: 1; CtBP-E1A blk: 3

What do the screens show for `CCCC1CCC(=NNS(=O)(=O)c2ccc(C)c([N+](=O)[O-])c2)CC1` (centres undefined)?
TRPML1 ag: 0.1; PINK1 expr mod: 10%; TRPML1 inh: -26; D2 ag: -2.6; Six1-Eya2 blk: -11; CtBP-E1A blk: -5

Results for CN(C)C(=O)c1nc2ccc(Cl)cn2c1CN1CCCC(OCc2cccnc2)C1 (centres undefined) ?
TRPML1 ag: 0.5; PINK1 expr mod: 0.3%; TRPML1 inh: 52; D2 ag: -7.5; Six1-Eya2 blk: -3

How did Cc1ccc(S(=O)(=O)N2CCN(CC(=O)N/N=C/C=C/c3ccccc3)CC2)cc1 do in these assays?
TRPML1 ag: 2.2; PINK1 expr mod: -1.4%; TRPML1 inh: 13; D2 ag: 1.8; Six1-Eya2 blk: -10; CtBP-E1A blk: -1

How did CN(C)c1ccc(C(CNS(=O)(=O)c2ccc(Br)cc2)N2CCOCC2)cc1 (centres undefined) do in these assays?
TRPML1 ag: -0.5; PINK1 expr mod: -0.5%; TRPML1 inh: -1

What do the screens show for `Cc1n[nH]c(C)c1S(=O)(=O)N(CC(=O)NC(C)c1ccccc1)c1ccc(C(C)C)cc1` (centres undefined)?
TRPML1 ag: -1.1; PINK1 expr mod: 0.8%; TRPML1 inh: 23

Results for O=C(NC(=S)NN1CCCCC1c1cccnc1)c1ccc(Br)cc1 (centres undefined) ?
TRPML1 ag: 0.8; PINK1 expr mod: 3.0%; TRPML1 inh: -13; D2 ag: -3.3; Six1-Eya2 blk: 11; CtBP-E1A blk: 5

How did CCCn1nnnc1NCc1ccc(C(C)C)cc1 do in these assays?
TRPML1 ag: 0.6; PINK1 expr mod: 2.1%; TRPML1 inh: 25; D2 ag: -1.1; Six1-Eya2 blk: -9; CtBP-E1A blk: -1

How did CCOC(=O)c1ccc(NC(=O)CN(Cc2ccc(Cl)cc2)S(C)(=O)=O)cc1 do in these assays?
TRPML1 ag: 1.6; PINK1 expr mod: -3.9%[38.3 µM]; TRPML1 inh: -4; D2 ag: 1.1; Six1-Eya2 blk: -2; CtBP-E1A blk: -2

What do the screens show for `CCOc1ccc(C(=O)NC(C)CCc2ccccc2)cc1` (centres undefined)?
TRPML1 ag: 0.7; PINK1 expr mod: 0.5%; TRPML1 inh: 10; D2 ag: -2.4; Six1-Eya2 blk: 3

Results for O=C(COC(=O)C1(c2ccc(F)cc2)CCCC1)N1CCNC1=O ?
TRPML1 ag: -0.5; PINK1 expr mod: 0.7%; TRPML1 inh: -15; D2 ag: -3.5; Six1-Eya2 blk: 3

What do the screens show for `C=C(C)c1cccc(C(C)(C)NC(=O)NCCCN2CCCC2=O)c1`?
TRPML1 ag: -0.7; PINK1 expr mod: 8.4%[38.3 µM]; TRPML1 inh: -3; D2 ag: -0.1; Six1-Eya2 blk: -1; CtBP-E1A blk: 4

Results for COc1ccc(NC(=S)NCC2CCN(c3ccc(OC)cc3)C2)cc1 (centres undefined) ?
TRPML1 ag: -0.5; PINK1 expr mod: 1.6%; TRPML1 inh: 2; D2 ag: 0.7; Six1-Eya2 blk: inconclusive; CtBP-E1A blk: inconclusive

What do the screens show for `Cc1cc(N2CCN(C)CC2)nc2ccc(NC(=S)NCCN3CCc4ccccc4C3)cc12`?
TRPML1 ag: 1.2; PINK1 expr mod: 0.6%; TRPML1 inh: 0; D2 ag: -0.4; Six1-Eya2 blk: -18

How did CCOC(=O)c1c(C)[nH]c(CCC(=O)NCc2ccccc2C)c1C do in these assays?
TRPML1 ag: 1.0; PINK1 expr mod: 0.5%; TRPML1 inh: -15

What do the screens show for `COc1ccccc1/C=C/C(=O)OCC(=O)NCc1ccc2c(c1)OCO2`?
TRPML1 ag: -1.8; PINK1 expr mod: 5.2%; TRPML1 inh: -9; D2 ag: 0.1; Six1-Eya2 blk: 8

Results for Cc1ccccc1C(=O)Nc1c(C(=O)N2CCN(C)CC2)cnn1-c1ccccc1 ?
TRPML1 ag: -0.6; PINK1 expr mod: 2.1%; TRPML1 inh: -9; D2 ag: -2.7; Six1-Eya2 blk: 3; CtBP-E1A blk: 1

Copied from the listing (2 entries):
What do the screens show for `COc1ccccc1/C=C/C(=O)OCC(=O)NCc1ccc2c(c1)OCO2`?
TRPML1 ag: -1.8; PINK1 expr mod: 5.2%; TRPML1 inh: -9; D2 ag: 0.1; Six1-Eya2 blk: 8

Results for Cc1ccccc1C(=O)Nc1c(C(=O)N2CCN(C)CC2)cnn1-c1ccccc1 ?
TRPML1 ag: -0.6; PINK1 expr mod: 2.1%; TRPML1 inh: -9; D2 ag: -2.7; Six1-Eya2 blk: 3; CtBP-E1A blk: 1

Next entries follow:
Results for CCCCOC(=O)c1ccc(NC(=O)C(=O)NCc2ccccn2)cc1 ?
TRPML1 ag: 1.6; PINK1 expr mod: 4.2%; TRPML1 inh: -5; D2 ag: 3.7; Six1-Eya2 blk: 1; CtBP-E1A blk: -20

What do the screens show for `CN1CCN(C(CNC(=O)c2ccc(Br)o2)c2ccc(F)cc2)CC1` (centres undefined)?
TRPML1 ag: 1.2; PINK1 expr mod: -0.8%; TRPML1 inh: 2; D2 ag: -4.3; Six1-Eya2 blk: 8; CtBP-E1A blk: 10

How did O=C(NCc1ccccc1)C1CC(=O)N(c2ccc(OCC(=O)N3CCCC3)cc2)C1 (centres undefined) do in these assays?
TRPML1 ag: 0.3; PINK1 expr mod: -0.1%; TRPML1 inh: 3; D2 ag: -1.5; Six1-Eya2 blk: -5; CtBP-E1A blk: 2

What do the screens show for `CCC(=O)Nc1sc(Cc2ccc3c(c2)OCO3)c(C)c1C(N)=O`?
PINK1 expr mod: 3.8%; D2 ag: 2.9; Six1-Eya2 blk: -11; CtBP-E1A blk: -5

What do the screens show for `CN1/C(=C/C=C(C#N)C#N)C=Cc2ccccc21`?
TRPML1 ag: 0.9; PINK1 expr mod: 2.3%; TRPML1 inh: -1; D2 ag: -2.1; Six1-Eya2 blk: 2; CtBP-E1A blk: 1

What do the screens show for `CCCCNC(=O)CSc1nc(N)c(C(=O)Nc2ccc(OC)cc2)s1`?
TRPML1 ag: 2.1; PINK1 expr mod: 1.5%; TRPML1 inh: 2; D2 ag: 4.0; Six1-Eya2 blk: -9; CtBP-E1A blk: -1

How did Cc1cccc(C(=O)OCC(=O)c2ccc3c(c2)OCO3)c1O do in these assays?
TRPML1 ag: 0.7; PINK1 expr mod: 6.8%; TRPML1 inh: 7; D2 ag: -1.9; Six1-Eya2 blk: 9; CtBP-E1A blk: 8

What do the screens show for `COc1cc2c(cc1OC)CN(C(=O)c1cc(S(=O)(=O)N3CCOCC3)c(Cl)cc1Cl)CC2`?
TRPML1 ag: 4.0; PINK1 expr mod: 1.4%; TRPML1 inh: 19; D2 ag: 3.2; Six1-Eya2 blk: 0; CtBP-E1A blk: -9

Results for CN(CCc1ccccc1)C(=O)c1ccc(NC(=O)Cc2ccc(NC(=O)C3CCCN(S(=O)(=O)c4cccc([N+](=O)[O-])c4)C3)cc2)cc1 (centres undefined) ?
TRPML1 ag: 0.6; PINK1 expr mod: 1.3%; TRPML1 inh: 37; D2 ag: 4.1; Six1-Eya2 blk: 0; CtBP-E1A blk: -12

How did COc1ccc(Nc2nc(NCCN3CCOCC3)nc(Nc3ccc(OC)cc3)n2)cc1 do in these assays?
TRPML1 ag: -0.8&-0.8; PINK1 expr mod: 4.8%&0.3%; TRPML1 inh: 13; D2 ag: 5.5; Six1-Eya2 blk: -23; CtBP-E1A blk: -10

What do the screens show for `Cc1cc(OCC(=O)Nc2ccc(N3CCN(C)CC3)cc2)ccc1Cl`?
TRPML1 ag: 0.2; PINK1 expr mod: -0.5%; TRPML1 inh: 3; D2 ag: 0.3; Six1-Eya2 blk: -2; CtBP-E1A blk: -1

Results for O=C(Nc1nnc(S(=O)(=O)N2CCc3ccccc32)s1)c1cccc(Cl)c1 ?
TRPML1 ag: 1.2; PINK1 expr mod: 9.4%; TRPML1 inh: -3

What do the screens show for `Nc1nc(-c2cc(O)ccc2[N+](=O)[O-])cc(-c2ccccc2)c1[N+](=O)[O-]`?
TRPML1 ag: 3.9; PINK1 expr mod: inconclusive; TRPML1 inh: -4; D2 ag: -1.5; Six1-Eya2 blk: inconclusive; CtBP-E1A blk: inconclusive

Results for COc1ccc(-c2nc3ccccc3o2)cc1OC ?
TRPML1 ag: 4.1; PINK1 expr mod: 0.7%; TRPML1 inh: -3; D2 ag: 2.7; Six1-Eya2 blk: 25; CtBP-E1A blk: 20

What do the screens show for `CCCCc1cc(=O)oc2cc(OCc3cc(OC)c(OC)c(OC)c3)c(Cl)cc12`?
TRPML1 ag: 0.3; PINK1 expr mod: 5.3%; TRPML1 inh: 10; D2 ag: -0.4; Six1-Eya2 blk: 7; CtBP-E1A blk: -1

What do the screens show for `COc1ccc(NC(=O)c2oc3ccccc3c2NC(=O)c2cc3ccccc3o2)c(OC)c1`?
TRPML1 ag: -0.6; PINK1 expr mod: 1.3%; TRPML1 inh: 15

Results for COc1ccccc1OCc1nc(-c2ccc([N+](=O)[O-])cc2)no1 ?
TRPML1 ag: 0.4; PINK1 expr mod: 1.2%; TRPML1 inh: -4; D2 ag: 7.4; Six1-Eya2 blk: -30; CtBP-E1A blk: inconclusive

Results for C=CCNC(=O)c1onc(CSc2ccccc2CC)c1C(=O)O ?
TRPML1 ag: -0.7; PINK1 expr mod: 0.2%; TRPML1 inh: -9; D2 ag: -0.1; Six1-Eya2 blk: 1; CtBP-E1A blk: 3

Results for CC1(C)Oc2ccc(C(=O)NC3CC3)cc2N(CC(=O)N2CCOCC2)C1=O ?
TRPML1 ag: 0.6; TRPML1 inh: 7; D2 ag: 2.0; Six1-Eya2 blk: 6; CtBP-E1A blk: -1

Results for CCOC(=O)c1c(NC(=O)CSc2nc3nc(C)cc(C)n3n2)sc(CC)c1C ?
TRPML1 ag: 0.2; PINK1 expr mod: 15%; TRPML1 inh: -4; D2 ag: -2.5; Six1-Eya2 blk: -4; CtBP-E1A blk: 0
